Choline anaer gr – inhibitors of anaerobic choline-dependent gram-negative bacterial growth. Gram-negative bacterium anaerobic choline minimal medium, absorbance growth; stronger effect = lower value; many inactives read as strong as hits in the columns shown. calls only. 0.2% of 55,000 active. AID 1963822;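 active = growth z-score on choline under -2 at 7 or 20 h with little or no fall on glycerol, limits in tiers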;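 also: stock transfer was 300 nL into about 50 µL; the organism is E. coli; final concentration not given here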
Choline anaer gr early – further read-out of Choline anaer gr, marked with its call; z-score; measured here: choline growth z-score, timepoint 1;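 score of optical density at 7 h as mean of two plates; lower means less growth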
An asterisk follows results filed as active; i = inactive; + = active, no number; & = joins results of further samples. The list is partial; the hit share may differ from the screen's.

No.	structure	Choline anaer gr	Choline anaer gr early
1	CN(c1cc(-c2ccccc2)nc2nc(-c3cccnc3)nn12)C1CCCCC1	i	-0.47
2	Cc1sc(-c2cc(C(F)(F)F)on2)cc1S(=O)(=O)N1CCN(C2CCCCC2)CC1	i	0.81
3	CN(C)C(=O)COc1cc(O)c2c(=O)cc(-c3ccccc3)oc2c1	i	-0.22
4	COCCNC(=O)c1nn(C)c2c1CSc1ccc(F)cc1-2	i	-0.62
5	Cc1noc(-c2ccc(S(=O)(=O)N3CCCCC3C)s2)c1C (configuration not stated)	i	-1.9
6	Cn1c(CN2CCN(C(=O)c3ccccc3F)CC2)nc2cc(C(=O)N3CCCC3)ccc21	i	-0.75
7	CCN(CC)CC(O)CN=C1NS(=O)(=O)c2ccccc21 (configuration not stated)	i	1.1
8	CCCNC(=O)CCn1cnc2oc(C)c(C)c2c1=O	i	-0.88
9	COc1cccc(NCc2nc3nc4c(c(=O)n3[nH]2)CCC4)c1	i	-1.5
10	CCn1ncc(CN2CCN(c3ncnc4c3CCC4)CC2)c1C	i	-0.81
11	CC(C)(C)c1ccc(C2CC(=O)c3cnc(NCc4ccccc4)nc3C2)cc1 (configuration not stated)	i	-0.32
12	CCc1ccc(N2C(=O)N(Cc3cccc(OC)c3)C3CS(=O)(=O)CC32)cc1 (configuration not stated)	i	0.58
13	CN(C)C(=O)c1ccc2c(c1)CCN2C(=O)C1CCC1	i	0.44
14	CC(C)C(=O)N1CCC2(C1)C(=O)Nc1ccccc12 (configuration not stated)	i	-1.5
15	Cc1nc(N(C)C)ncc1C(=O)NCc1ccccc1	i	0.33
16	CCOc1ccc(N2C(=O)CSc3c(c(C)nn3-c3ccccc3)C2C(=O)NCc2ccccc2OC)cc1 (configuration not stated)	i	0.27
17	O=C(Nc1ccc2c(c1)OCO2)c1ccc(=O)n(Cc2cccc(Cl)c2)c1	i	-0.26
18	CCN(CC)CCn1c(C)c(C)c2c1ncn1nc(-c3ccccc3)nc21	i	-0.28
19	Cc1ccc(S(=O)(=O)c2c(O)c3ccc(C(=O)N4CCOCC4)cc3[nH]c2=O)cc1	i	-0.31
20	CCOC(=O)c1c(S(=O)(=O)N2CCC(C(=O)Nc3ccc4c(c3)OCCO4)CC2)c(C)n(C)c1C	i	0.39
21	COc1ccc(C2c3cccn3-c3sc4c(c3CN2C(=O)Nc2ccc(OC)cc2OC)CCN(C)C4)cc1 (configuration not stated)	i	0.35
22	Cn1nc(C(=O)N2CCCC(C(=O)N3CCCC3)C2)c2c1CCN(C(=O)COc1ccc(F)cc1)C2 (configuration not stated)	i	0.85
23	Cc1ccccc1C(=O)Nc1sc2c(c1C(=O)N1CCC(C)CC1)CCCC2	i	-0.61
24	O=C(CN1C(=O)c2cccnc2Sc2ccccc21)NCCc1c[nH]c2ccc(Cl)cc12	i	-1.8
25	O=C1CSC(c2cn(-c3ccccc3)nc2-c2ccccc2)N1Cc1cccnc1 (configuration not stated)	i	0.02
26	O=C1CCS(=O)(=O)N1c1ccc(S(=O)(=O)NC2CCS(=O)(=O)C2)cc1 (configuration not stated)	i	0.06
27	Cc1ccc(CN2CCCC2c2c(C)noc2C)cc1C (configuration not stated)	i	-2.6
28	CCc1cc2c(c(CC)n1)CCC(=O)N2Cc1ccc(-c2ccccc2-c2nn[nH]n2)cc1	i	-1
29	CCn1cc(-c2nc(-c3cc(OC)cc(OC)c3)no2)c(=O)c2cc(F)c(N3CCOCC3)cc21	i	-0.06
30	CN(C)c1ccc(CC2C(=O)Nc3ccccc32)cc1 (configuration not stated)	i	0.03

Quoted at random: 3 entries already listed, in no set order.
No.	structure	Choline anaer gr	Choline anaer gr early
17	O=C(Nc1ccc2c(c1)OCO2)c1ccc(=O)n(Cc2cccc(Cl)c2)c1	i	-0.26
27	Cc1ccc(CN2CCCC2c2c(C)noc2C)cc1C (configuration not stated)	i	-2.6
12	CCc1ccc(N2C(=O)N(Cc3cccc(OC)c3)C3CS(=O)(=O)CC32)cc1 (configuration not stated)	i	0.58

Going on with the list.
No.	structure	Choline anaer gr	Choline anaer gr early
31	Cc1ccc(Cn2cccc2CNS(=O)(=O)c2ccc(C)cc2C)cc1	i	-0.61
32	COc1ccc(-n2nnnc2C2CCN(S(=O)(=O)c3ccc(F)cc3Cl)CC2)cc1	i	0.29
33	CCC(C)NC(=O)CN1C(=O)CCn2nc(C)cc21 (configuration not stated)	i	0.13
34	O=S(=O)(NC1CCCCCCC1)c1ccc2c(c1)-c1oncc1CO2	i	-0.97
35	COc1ccccc1N1CCN(c2ncc(S(=O)(=O)c3ccccc3)c(N)n2)CC1	i	0.45
36	Cc1nc2nc(CNc3cccc(Cl)c3)[nH]n2c(=O)c1C	i	0.27
37	COc1cc(OC)cc(-c2noc(C3CCCN(S(=O)(=O)c4ccc(Br)cc4)C3)n2)c1 (configuration not stated)	i	0.5
38	COc1ccc(C(=O)Cn2c(=O)n3nc(-c4ccccc4)nc3c3ccccc32)cc1OC	i	-0.74
39	CCc1ccccc1NC(=O)CCc1c(C)nn2cnnc2c1C	i	-0.31
40	CCCCN(C)C(=O)c1ccc(-c2nc3ccccc3n(CCC)c2=O)cc1	i	-1.1
41	O=C(Cc1ccsc1)N1CCCC1c1ccc(Cl)cc1 (configuration not stated)	i	-0.86
42	CCSc1nc2ccc(NS(=O)(=O)Cc3cc(C)ccc3C)cc2s1	i	0.62
43	c1cc(N2CCCCC2)ncc1-c1noc(CN2CCC3(CC2)OCCO3)n1	i	0.63
44	CN1CCN(c2nc(N3CCOCC3)nc3c2cnn3C)CC1	i	-1.8
45	CCCS(=O)(=O)c1nc2ccc(NS(=O)(=O)c3ccc4c(c3)OCCO4)cc2s1	i	0.44
46	COc1ccccc1-c1c(C)nn2c(SCC(=O)NCc3ccccc3Cl)cc(C)nc12	i	-1.8
47	CCCc1cc(C2CCCN2Cc2cn[nH]c2-c2ccccc2)no1 (configuration not stated)	i	0.29
48	COc1ccc(C2CC(=O)N(c3ccc(F)c(C)c3)C(=O)C2)cc1	i	0.17
49	CCC(=O)Nc1ccc(S(=O)(=O)N2CCC[C@@H]2C(=O)NCc2csc(C)n2)cc1	i	-1.7
50	CCCCC[C@@](C)(O)/C=C/[C@@H]1C(C/C=C\CCCC(=O)O)[C@@H](O)C[C@H]1O (some centres not stated)	i	0.26
51	Cc1ccc(C(=O)Nc2ccc(-n3c(C)nc4ncccc4c3=O)cc2)cc1	i	-0.89
52	O=C(C1CCN(c2ncnc3c2sc2ncccc23)CC1)N1CCN(c2ccc(Cl)cc2)CC1	i	0.38
53	CC(C)(C)c1csc(-c2csc(S(=O)(=O)N3CCCCC3)c2)n1	i	-1.4
54	Cc1[nH]c(C)c(S(=O)(=O)N2CCC(C(=O)N3CCCc4ccccc43)CC2)c1C(=O)N1CCCCC1	i	1.3
55	O=C(NCC1CCCO1)c1cccc(N2C(=O)CCS2(=O)=O)c1 (configuration not stated)	i	-0.14
56	Cc1nc(-c2cc(S(=O)(=O)Nc3ccc(F)c(Cl)c3)c(C)s2)cs1	i	0.98
57	CCCN1C(=O)C2(CCOCC2)Nc2ccccc21	i	-0.08
58	NC[C@H]1O[C@H](O[C@H]2[C@H](O)[C@@H](O[C@H]3O[C@H](CO)[C@@H](O)[C@H](N)[C@H]3O)[C@H](N)C[C@@H]2N)[C@H](O)[C@@H](O)[C@@H]1O	i	0.12
59	CC(C)NS(=O)(=O)c1ccc(Cl)c(-c2nnc(-c3ccccc3)o2)c1	i	0.29
60	CCCN1CCN(c2nnc(-n3cccc3CN3CCN(c4ccccc4)CC3)s2)CC1	i	0.99

Single records, as listed above.
Cc1ccc(CN2CCCC2c2c(C)noc2C)cc1C (configuration not stated) across the screens: Choline anaer gr = i; Choline anaer gr early = -2.6
Cc1nc(N(C)C)ncc1C(=O)NCc1ccccc1 across the screens: Choline anaer gr = i; Choline anaer gr early = 0.33

Gathered by group: the compounds so far containing a tert-butyl group
No.	structure	Choline anaer gr	Choline anaer gr early
11	CC(C)(C)c1ccc(C2CC(=O)c3cnc(NCc4ccccc4)nc3C2)cc1 (configuration not stated)	i	-0.32
53	CC(C)(C)c1csc(-c2csc(S(=O)(=O)N3CCCCC3)c2)n1	i	-1.4

(continued)
No.	structure	Choline anaer gr	Choline anaer gr early
61	O=C(CCn1ccc2cc(S(=O)(=O)N3CCCCC3)ccc21)NCc1cccnc1	i	1.6
62	CNC(=O)c1ccc2c(c1)c(C)c(C)n2C	i	-1.6
63	CN1C(=O)Cc2cc(S(=O)(=O)N3CCN(c4nc5ccccc5n5cccc45)CC3)ccc21	i	-2.7
64	CC1(C)C(=O)N(CC(=O)N2CCN(c3ccc(F)cc3)CC2)c2ccccc21	i	0.17
65	Cc1ccccc1S(=O)(=O)N1CCc2c([nH]c3ccccc23)C1c1ccc(Cl)cc1 (configuration not stated)	i	0.06
66	CCCNC(=O)CCCN1C(=O)CCn2nc(C)cc21	i	-0.78
67	COc1ccc(C(=O)Nc2cnc3oc(-c4ccccc4OC(C)C)nn3c2=O)cc1	i	0.06
68	CCSc1nn(CC(=O)Nc2ccccc2Cl)c(N)c1S(=O)(=O)c1ccc(OC)cc1	i	0.65
69	CCn1nc(C)c(CCNC(=O)Cn2c(=O)c(=O)n(CC)c3ncccc32)c1C	i	0.35
70	CC(C)(C)c1csc(-c2csc(S(=O)(=O)Nc3ccc(Cl)cc3F)c2)n1	+	-0.84*
71	CC(C)(C)NCC(O)COc1cccc2c1CCC(=O)N2 (configuration not stated)	i	0.54&0.57
72	CCC1Oc2cc(S(=O)(=O)N3CCCC(C(=O)N(C)C4CCCCC4)C3)c(C)cc2NC1=O (configuration not stated)	i	0.49
73	N[C@@H](Cc1cc(CP(=O)(O)O)cc(-c2ccccc2Cl)c1)C(=O)O	i	0.02
74	Nc1c(Br)cc(Br)cc1CNC1CCC(O)CC1 (configuration not stated)	i	0.37&0.18&0.34&-0.12
75	CC1CCN(C(=O)c2csc(N3CCCCC3)n2)CC1	i	0.14
76	CN1CCN(C(=O)CN2C(=O)CCc3cc(S(=O)(=O)N4CCCCC4)ccc32)CC1	i	0.49
77	Cc1ccccc1NC(=O)c1nccnc1C(=O)O	i	-0.81
78	CCOc1cc(-c2noc(-c3ccccc3)n2)ccc1OCC(=O)Nc1nnc(C)s1	i	0.14
79	CCC(CC)O[C@@H]1C=C(C(=O)OC)C[C@H](N)[C@H]1NC(C)=O	i	0.33
80	CCCCCCCCCCCCCCCCOC[C@H](COP(=O)([O-])OCC[N+](C)(C)C)OC(=O)NC	i	-1.8&-0.42
81	COc1ccc(OC)c(NC(=O)c2c(C(=O)Nc3ccccc3)sc3nc(C)cc(=O)n23)c1	i	0.42
82	Cc1ccccc1C1CC(=O)Nc2c1c(C)nn2-c1ccc2nnc(C)n2n1 (configuration not stated)	i	-0.96
83	O=C(O)CCCN1CCN([C@H](c2ccccc2)c2ccc(Cl)cc2)CC1	i	0.41
84	O=C(C1CCCCN1S(=O)(=O)c1ccc(F)cc1)N1CCN(c2ccccc2F)CC1 (configuration not stated)	i	0.39
85	COc1cccc(NC(=O)C2CCC(CNS(=O)(=O)c3ccc4c(c3)CC(C)N4C(C)=O)CC2)c1 (configuration not stated)	i	0.3
86	Cc1ccc2oc(=O)c3cc(C(=O)NCCCN4CCC(C)CC4)sc3c2c1	i	-0.32
87	O=c1ccc(-c2ccc3c(c2)OCCO3)n[nH]1	i	-1.3
88	O=C(CCc1nc(-c2ccc(S(=O)(=O)N3CCOCC3)cc2)no1)Nc1nccs1	i	1.2
89	Cc1ccc(-n2nc(N3CCN(C(=O)c4cc5ccccc5[nH]4)CC3)ccc2=O)cc1C	i	0.1
90	Cc1ccc(C)c(N2C(=O)c3cc4ccsc4n3CC2(C)C(=O)NC2CCCCC2)c1 (configuration not stated)	i	0.04

The listing continues:
No.	structure	Choline anaer gr	Choline anaer gr early
91	COc1cc(OC)c(NC(=O)N2CCN(Cc3nc4cccnc4n3-c3ccccc3)CC2)cc1Cl	i	-0.11
92	Cc1nc(CN2C(=O)COc3ccc(S(=O)(=O)NCc4cccnc4)cc32)no1	i	-2.3
93	O=C(c1cc(S(=O)(=O)N2CCCC2)ccc1Cl)N1CCN(c2cccc(Cl)c2)CC1	i	-0.33
94	Cc1cc(Sc2ccccc2NC(=O)Nc2cccc(Cl)c2)n2ncnc2n1	i	1.5
95	COc1ccc(OC)c(CNC(=O)C2(NS(=O)(=O)c3cccc4cccnc34)CCCCC2)c1	i	-0.24
96	O=C(CCc1nnc(C(=O)Nc2ccccc2)s1)NCCc1c[nH]c2ccc(Cl)cc12	i	0.84
97	O=c1c(NCc2ccccc2)nccn1-c1ccc2c(c1)OCO2	i	-2.1
98	Cc1csc(-c2cc(S(=O)(=O)NCC3CC3)cn2CC(=O)N2CCCCC2)n1	i	-0.85
99	Cn1nc(-c2nc(-c3ccccc3)no2)c2c1CCN(S(=O)(=O)c1ccc(F)cc1)C2	i	-0.23
100	Cc1cccc(CSc2ccc(-n3nc4c(c3C)CCC4)nn2)c1	i	2.6
101	O=C(NC1CC1)C1CCN(c2cc(-c3ccc(F)cc3)ncn2)CC1	i	-0.05
102	CCCCC[C@H](O)/C=C/[C@@H]1[C@@H](C/C=C\CCCC(=O)O)[C@@H](O)C[C@@H]1O	i	0.61&0.26
103	Cc1ccc(Nc2nc(-c3ccc4c(c3)OCO4)cs2)nc1	i	0.48
104	Cc1ccc(Cl)cc1N1CCN(C(=O)c2cccn3c(=O)c4c(C)c(C)sc4nc23)CC1	i	-0.84
105	CC(C)[N+](C)(CCOC(=O)C1c2ccccc2Oc2ccccc21)C(C)C	i	0.33&0.05
106	Cc1[nH]nc(-c2c(C)sc(C)c2S(=O)(=O)NC2CCCc3ccccc32)c1C (configuration not stated)	i	0.15
107	Nc1ncnc2c1c(I)cn2[C@@H]1O[C@H](CO)[C@H](O)C1O (some centres not stated)	i	-0.14
108	COCCN(CCOC)C(=O)c1cc2cccnc2n(Cc2ccccc2)c1=O	i	-1.9
